# Screens: PubChem, Broad Institute
# FGF22 binding = shifts melting point of recombinant human FGF22. calls only at 9.99 µM. 1.5% of 340,000 active. recombinant FGF22 thermal shift, SYPRO orange fluorescence; percent of sucrose octasulfate shift, DMSO zero. AID 651658. Q9HCT0;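 active means melting point raised past a set limit in the mean and every replicate; inconclusive means no clear call; three in four hits are not shown here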
# Target sequence (Q9HCT0 whole entry, looked up): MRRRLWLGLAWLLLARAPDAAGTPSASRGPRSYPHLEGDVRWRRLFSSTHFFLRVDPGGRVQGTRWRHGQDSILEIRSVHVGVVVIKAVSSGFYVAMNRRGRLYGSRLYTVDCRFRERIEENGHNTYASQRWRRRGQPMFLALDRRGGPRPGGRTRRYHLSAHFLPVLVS
# T cruzi inh = T. cruzi replication inhibition; T. cruzi beta-gal in NIH3T3, luminescence, 90 h; 1.4% of 300,000 active; inhibition, % (test concentration not listed); AID 1885;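 active means mean inhibition across valid replicates above about 55%, limit read from the data; inconclusive means mean below that limit but half or more replicates reach it; inactive means mean below it, under half of replicates reach it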;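 further: signal also drops with host cell toxicity which is not excluded here; 0% = plate median of DMSO wells and 100% = zero luminescence signal; higher percent means less beta-gal luminescence so fewer parasites; stock transfer was 50 nL into about 50 µL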
# Beta cell apopt = beta cell apoptosis inhibition; INS-1E cytokine-induced death, ATP luminescence, 48 h; percent of positive-control rescue, neutral wells zero; protection from apoptosis, % (no concentration beside the values); AID 435005; 0.8% of 300,000 active;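 active means all replicates at 75% or more, or half of them and the mean; inconclusive means half reach 75% but not the mean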;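 further: 0% = cytokine-treated negative control wells and 100% = positive control rescue; higher means more ATP so stronger rescue from cytokine killing; wells of about 40 µL received 100 nL stock; the first replicate is given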
# Calb FLC = affects C. albicans growth with fluconazole. AID 1979. C. albicans CaCi-2 (fluconazole-resistant clinical isolate) + fluconazole, Alamar Blue growth, 48 h. growth inhibition, % (no concentration beside the values). 0.57% of 300,000 active;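 active means most replicates above 75%; inconclusive means exactly half above 75%; inactive means most below 75%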;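 further: all wells also contain fluconazole at 8 µg/ml as a sub-toxic cotreatment; 0% = median of DMSO wells and 100% = median of geldanamycin control wells; wells of about 8 µL received 7.5 nL stock; the first replicate is given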
# MLL AF4-AF9 inh = MLL-AF4/AF9 protein interaction inhibition; AlphaScreen, biotin-AF4 peptide binding to FLAG-AF9; inhibition, % at 10 µM; 0.47% of 350,000 active;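 active means every replicate reaching a set inhibition limit, whatever the replicate mean, cut at about 25% in these data; inconclusive means mean inhibition reaches that limit but some replicates miss it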;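 further: 0% = plate neutral control median and 100% = total signal loss; the record names both 10 and 1 µM as test concentration; the first replicate is given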
# Target sequence (P42568 whole entry, looked up): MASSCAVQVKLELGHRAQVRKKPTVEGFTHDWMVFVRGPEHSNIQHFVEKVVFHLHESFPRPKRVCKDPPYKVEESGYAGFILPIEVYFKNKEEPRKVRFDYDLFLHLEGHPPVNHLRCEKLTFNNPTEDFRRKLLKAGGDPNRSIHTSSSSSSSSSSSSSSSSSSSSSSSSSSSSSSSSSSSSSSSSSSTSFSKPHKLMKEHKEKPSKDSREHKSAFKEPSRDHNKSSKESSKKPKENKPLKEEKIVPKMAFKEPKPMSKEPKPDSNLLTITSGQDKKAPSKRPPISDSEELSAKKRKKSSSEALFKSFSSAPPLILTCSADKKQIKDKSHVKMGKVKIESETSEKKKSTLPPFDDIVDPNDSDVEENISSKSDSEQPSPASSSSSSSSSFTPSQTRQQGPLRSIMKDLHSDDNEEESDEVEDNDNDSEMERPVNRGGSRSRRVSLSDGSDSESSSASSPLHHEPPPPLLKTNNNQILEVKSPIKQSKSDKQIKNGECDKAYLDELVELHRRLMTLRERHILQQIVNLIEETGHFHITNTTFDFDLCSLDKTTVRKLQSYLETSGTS
# ALR H2O2 inh = human ALR oxidase inhibition via reduced H2O2. inhibition, % (test concentration not listed). purified ALR, DTT oxidation, H2O2 HRP-luminol luminescence. P55789. 3.8% of 290,000 active. AID 485317;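 active means mean and each replicate at 75% or more; inconclusive means only one of the two met; inactive means neither met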;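 further: stock transfer was 7.5 nL into about 7.5 µL; 0% = neutral wells and 100% = wells with inactivated enzyme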
# Target sequence (P55789 whole entry, looked up): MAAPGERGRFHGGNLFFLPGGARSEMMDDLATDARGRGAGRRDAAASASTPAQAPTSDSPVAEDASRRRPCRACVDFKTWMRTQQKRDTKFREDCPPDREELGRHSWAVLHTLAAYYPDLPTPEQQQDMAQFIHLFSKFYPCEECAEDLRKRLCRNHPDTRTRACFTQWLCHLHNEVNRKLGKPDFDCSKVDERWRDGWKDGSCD
# RanGTP-Imp inh = disruptors of Ran-importin-beta complex formation – biochemical, FRET, CFP-Ran, YFP-importin-beta, homogeneous, primary screen. cell-free CFP-Ran/YFP-importin-beta FRET ratio. inhibition, % (test concentration not listed). 1.1% of 300,000 active. AID 2216;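 active means most replicates above 15%; inconclusive means exactly half above 15%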;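 further: 0% = DMSO wells and 100% = Ran loaded with GDP instead of GTP; wells of about 40 µL received 100 nL stock; the first replicate is given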
# rRNA inh HTS = selective bacterial rRNA inhibition in E. coli. E. coli WT GFP vs humanized-ribosome RFP mutants, fluorescence, 24 h; active compounds read low; DMSO median 0, no signal -100. GFP signal change (wild-type ribosome), % (test concentration not listed). 1.6% of 350,000 active;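 active means significant combined selectivity score with lowered wild-type GFP, culture density cut under 30%, mutant RFP and density less affected; inactive means any of these conditions unmet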; further: one replicate is shown; some compounds called inactive have numbers as strong as hits
# rRNA inh HTS OD600 = also measured in rRNA inh HTS; calls as there; OD600 change, %; measured here: OD600 growth;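 optical density of the mix in the first replicate; 0 = DMSO median and -100 = no signal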
# rRNA inh HTS RFP = recorded beside rRNA inh HTS, whose call it bears; RFP signal change, %; measured here: RFP humanized mutant strains;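 first replicate; 0 = DMSO median and -100 = no signal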
# * hit, by the source's call; i = inactive; ? = inconclusive; . = not tested or not shown. Only part of the results is shown, so the mix of outcomes need not match the whole.
SMILES,FGF22 binding,T cruzi inh,Beta cell apopt,Calb FLC,MLL AF4-AF9 inh,ALR H2O2 inh,RanGTP-Imp inh,rRNA inh HTS,rRNA inh HTS OD600,rRNA inh HTS RFP
Cc1c(CCC(=O)N[C@@H](C)C(=O)O)c(=O)oc2cc3occ(-c4ccccc4)c3cc12,i,-6,-7,-3,0.4,53,-4.4,-35,-44,-5.5
CCOC(=O)c1ccc(NC(=O)CNC(=O)C2CCCCC2)cc1,i,6,0,-2,-8.9,-7,-1.5,7,23,-0.2
CCOC(=O)C(Cc1ccc(OC)c([N+](=O)[O-])c1)NC(=O)CCC(=O)Nc1ccc(C)cc1 (stereo not drawn),i,-11,4,1,-1.7,15,0.1,8,3,-1.2
CC(Oc1cccc(Cl)c1)C(=O)Nc1ccccc1C(=O)N1CCCCC1 (stereo not drawn),i,1,0,3,4.3,2,8.9,-7,-12,-1.0
COc1ccc(NC2CCCCC2NS(=O)(=O)c2ccc(C)cc2)cc1 (stereo not drawn),i,2,-3,15,10,87*,3.9,-2,-27,-1.5
Cn1cc(CNCCCn2ncc3ccccc32)c(-c2ccccc2F)n1,i,-20,-3,-4,.,4,4.2,12,6,-5.5
CC(C)(C)NC(=O)CC1C(=O)NCCN1Cc1c(F)cccc1Cl (stereo not drawn),i,-8,-1,19,-6.4,-23,3.4,16,13,0.5
C=CCSc1nc2ccccc2[nH]1,.,-12,-6,-3,.,-7,8.6,.,.,.
CC(NC(=O)C12CC3CC(CC(C3)C1)C2)C(=O)N/N=C/C1=C(N2CCOCC2)C(=C\c2ccccc2)/CC1 (stereo not drawn),i,42,5,1,-11,-1,-3.3,3,-3,0.0
COc1ccc(C(=O)C23CC4CC(C2)CC(C(=O)c2ccc(OC)cc2)(C4)C3)cc1,i,47,2,-5,-2.5,-3,.,-3,7,2.4
Cc1ccc2cc3cc(C(=O)NCCCN4CC(C)CC(C)C4)oc3nc2c1 (stereo not drawn),i,50,4,-3,8.0,0,4.9,4,5,-1.7
COCCOC(=O)C1=C(C)NC2=C(C(=O)CC(c3cccs3)C2)C1c1ccsc1 (stereo not drawn),.,7,-2,-7,.,-23,1.4,.,.,.
O=S(=O)(c1ccc(=S)[nH]c1)N1CCN(Cc2ccccc2)CC1,i,.,-5,.,-3.3,46,.,8,14,0.9
CCN(CC)C(=O)C12C(=O)Oc3ccccc3C1C2(C)C(=O)c1ccc(F)cc1 (stereo not drawn),i,.,-5,-6,-3.8,.,0.7,3,3,-0.7
CCn1cc(C(=O)NCC(=O)NC(C)(C)CO)c(=O)c2cc3c(cc21)OCO3,i,-4,0,5,-0.6,-14,-0.2,0,9,2.3
CC(C)CCN1CC(=O)N2Cc3[nH]c4ccccc4c3C[C@H]2C1=O,i,-5,-3,1,-0.3,-1,1.3,-1,-18,3.3
CSc1nsc(SC)c1NC(=O)N1CCCCC1,.,-13,1,-2,.,-17,-4.3,.,.,.
CCCCCn1c(=O)[nH]c2cc(C(=O)N3CCN(c4ccc(C(C)=O)cc4)CC3)ccc2c1=O,i,16,.,12,0.9,6,1.8,1,2,0.3
Cc1nnn(-c2nonc2N)c1C(=O)N/N=C/c1ccccc1O,.,-4,85*,-5,.,-13,0.6,.,.,.
C[C@@H](NC(=O)c1[nH]cnc1C(=O)Nc1ccon1)c1ccccc1,i,.,-3,.,-4.2,-3,.,-23,-23,15
O=C(CCn1cnc(-c2ccccc2)c1-c1ccccc1)N/N=C/c1ccc(O)cc1,.,-3,-4,20,12,89*,1.6,-33,-41,-3.6
CC(C)Nc1nc(NC(C)C)nc(C(N)=O)n1,.,-15,-12,-16,.,-1,-2.0,.,.,.
Cc1ccc2nc3c(nc2c1)-c1ccccc1C3=O,.,-17,-7,-12,.,-1,-0.4,.,.,.
CC(=O)NC(NC(=S)Nc1ccc(N=Nc2ccccc2C)cc1C)C(Cl)(Cl)Cl (stereo not drawn),.,6,.,-3,.,4,1.3,.,.,.
COc1ccccc1NC(=O)CCC(=O)Nc1nnc(C(F)(F)F)s1,.,-30,-6,0,.,-4,3.1,.,.,.
# The results go on:
SMILES,FGF22 binding,T cruzi inh,Beta cell apopt,Calb FLC,MLL AF4-AF9 inh,ALR H2O2 inh,RanGTP-Imp inh,rRNA inh HTS,rRNA inh HTS OD600,rRNA inh HTS RFP
Cc1cc(N2CCN(c3ccccn3)CC2)n2nc(C)nc2n1,.,-8,-2,8,.,.,-3.5,.,.,.
COc1ccc(-c2ccc3ccccc3n2)cc1OC,i,-14,-6,18,-5.5,.,-5.3,-34*,-6.8*,-5.7*
O=C(COC(=O)C1CCCCC1)NCc1ccc(Cl)cc1,i,.,-8,.,4.5,.,.,-1,-5,0.0
O=C(Nc1nc2ccccc2s1)C1CCCN1S(=O)(=O)c1ccc(Cl)cc1 (stereo not drawn),.,15,4,-1,.,-5,0.4,.,.,.
C=CCn1c(CNc2ccc(C)cc2)nnc1SCC(=O)N/N=C/c1ccc(O)cc1,.,3,-5,-10,.,.,3.8,.,.,.
COc1ccc(S(=O)(=O)N2CCCCCC2)cc1NC(=O)CN1C(=O)NC(C)(c2ccc(C)cc2)C1=O (stereo not drawn),i,7,1,-1,0.1,0,-1.0,-17,-19,0.4
COc1ccc(Cl)cc1NC(=S)NCc1ccccn1,.,-18,.,2,.,-2,1.6,.,.,.
Cc1ccc(NC(=O)COC(=O)CNC(=O)c2cccc([N+](=O)[O-])c2)cc1S(=O)(=O)N1CCCCCC1,.,1,-11,-8,.,-3,1.0,.,.,.
COc1ccc(NC(=O)CSc2nnc(Cc3cccn3C)n2-c2ccc(F)cc2)cc1,i,-7,0,-6,10,-2,?,-1,-6,1.0
Cc1cccc(OCC(=O)NCCNC(=O)c2ccccn2)c1,i,1,-3,2,1.0,-1,2.5,4,12,0.1
Cc1ccc(S(=O)(=O)N2CCc3c2cc([N+](=O)[O-])cc3[N+](=O)[O-])cc1,i,41,7,-7,0.6,-19,-5.4,6,7,1.4
c1nc2nc3c(c(N4CCOCC4)n2n1)CCCC3,.,8,0,-1,.,-13,5.3,.,.,.
COc1ccc(NC(=O)CN(c2cc(C)cc(C)c2)S(=O)(=O)c2c(C)noc2C)cc1OC,i,-8,-3,-1,1.6,-6,2.5,-3,-1,-0.9
COc1ccc(-c2n[nH]c(=S)nc2-c2ccc(OC)cc2)cc1,i,2,4,0,1.6,-1,5.0,-15,-9,1.3
Cc1ccccc1CC(=O)N1CCCC(CNC(=O)c2ccc(F)cc2)C1 (stereo not drawn),i,-4,-2,4,-3.4,-8,-0.6,1,3,-2.8
C=CCOC(=O)C1=C(C)NC(SC)=C(C#N)C1c1cccs1 (stereo not drawn),.,12,7,-4,.,18,6.4,.,.,.
Cc1ccc(S(=O)(=O)Nc2cc(Cl)ccc2-n2cncn2)cc1,i,.,6,.,-2.0,6,.,-5,-13,-2.4
Cc1cc(NC(=O)c2noc3c2CCCC3)n(-c2ccccc2)n1,.,0,0,19,.,-1,7.2,.,.,.
CC(C)[C@H](NS(=O)(=O)c1cccc(Cl)c1)C(=O)OCC(=O)N1CCN(c2ccccc2)CC1,i,-16,.,-3,4.5,3,-6.3,.,.,.
COc1cccc(CNC(=O)CCC2CCCN(c3cc(C)nc(N)n3)C2)c1 (stereo not drawn),i,5,-3,-2,2.3,.,6.7,13,15,2.9
COc1cc2c(cc1OC)CN(C(=O)CSc1n[nH]c(N)n1)CC2,.,-1,-8,1,.,-14,-1.5,.,.,.
CCOC(=O)C1(CCOc2ccccc2)CCN(Cc2cnc(C)s2)CC1,i,30,-3,-23,1.0,-1,-5.0,-3,-7,-4.5
Cn1nc(C(=O)NCCN2CCOCC2)c2ccccc2c1=O,.,-9,-6,-19,.,2,3.3,.,.,.
O=c1nc2n(c3sc4c(c13)CCCC4)C(CBr)CS2 (stereo not drawn),.,.,-15,4,.,86*,2.9,.,.,.
COc1ccc(OC)c(C(=O)CSc2nnc(Cc3cccs3)n2CCc2ccccc2)c1,i,22,-1,18,-2.5,-11,?,-19,-29,23

# Part of the list above, reduced to T cruzi inh:
SMILES | T cruzi inh
COc1ccc(OC)c(C(=O)CSc2nnc(Cc3cccs3)n2CCc2ccccc2)c1 | 22
COc1ccc(NC(=O)CSc2nnc(Cc3cccn3C)n2-c2ccc(F)cc2)cc1 | -7

# A different layout for part of the listing above:
mol | FGF22 binding | T cruzi inh | Beta cell apopt | Calb FLC | MLL AF4-AF9 inh | ALR H2O2 inh | RanGTP-Imp inh | rRNA inh HTS | rRNA inh HTS OD600 | rRNA inh HTS RFP
CC(=O)NC(NC(=S)Nc1ccc(N=Nc2ccccc2C)cc1C)C(Cl)(Cl)Cl (stereo not drawn) | . | 6 | . | -3 | . | 4 | 1.3 | . | . | .
CC(C)CCN1CC(=O)N2Cc3[nH]c4ccccc4c3C[C@H]2C1=O | i | -5 | -3 | 1 | -0.3 | -1 | 1.3 | -1 | -18 | 3.3
O=C(CCn1cnc(-c2ccccc2)c1-c1ccccc1)N/N=C/c1ccc(O)cc1 | . | -3 | -4 | 20 | 12 | 89* | 1.6 | -33 | -41 | -3.6
Cc1ccc(S(=O)(=O)Nc2cc(Cl)ccc2-n2cncn2)cc1 | i | . | 6 | . | -2.0 | 6 | . | -5 | -13 | -2.4

# New compounds follow.
SMILES,FGF22 binding,T cruzi inh,Beta cell apopt,Calb FLC,MLL AF4-AF9 inh,ALR H2O2 inh,RanGTP-Imp inh,rRNA inh HTS,rRNA inh HTS OD600,rRNA inh HTS RFP
Cc1ccc(-c2cc(C(=O)NN=C3CCCC3)c3ccccc3n2)cc1,.,1,3,-5,.,16,-0.8,.,.,.
COc1ccc(N2C(=O)C(CC(=O)O)S/C2=N\N=C\c2cccs2)cc1 (stereo not drawn),i,-8,5,17,-1.2,9,5.3,9,2,-1.9
C[C@]12CC[C@@H]3c4ccc(O)cc4CC[C@H]3[C@@H]1CCC2=O,i,-3,-3,.,1.0,.,-1.6,-7,-6,1.7
CCOc1ccccc1N=Cc1c(O)c2ccccc2oc1=O,i,-2,-4,-4,-3.5,-3,6.7,12,5,1.2
CCOC(=O)Cn1ncc(-c2ccccc2)c1N,.,-15,2,-1,.,36,0.1,.,.,.
CCOc1cc(N2CCOCC2)c(OCC)cc1NC(=O)COC(=O)/C=C/c1ccc(OC(F)F)cc1,.,-5,.,-1,-0.8,.,0.4,10,15,0.1
CCCCn1c(N)c(N(CCOC)C(=O)c2cc(S(=O)(=O)N3CCOCC3)ccc2F)c(=O)[nH]c1=O,.,-9,-4,-11,-5.3,-4,-1.2,3,9,-2.5
S=C(NCC1CCCO1)NC1CCCC1 (stereo not drawn),i,-20,-1,-17,0.4,-3,1.6,2,5,-1.3
Cc1nc(C)c(-c2ccc(SCC(=O)Nc3cccc(Cl)c3C)nn2)s1,i,18,.,-6,-0.1,47,-0.1,-9,-16,-1.0
COc1ccc(CCCC(=O)NC(C)c2ccccc2)cc1 (stereo not drawn),i,1,-2,4,2.1,-3,6.4,1,-5,0.7
CCN(CC)CCCCOc1ccccc1OC,i,12,-2,-15,1.8,-20,-1.3,20,12,-10
